Compound activity: PubChem BioAssay, National Center for Advancing Translational Sciences (NCATS)
TRPV1 potentiator: enhances activation of the human vanilloid receptor TRPV1 | potentiation, % at 8.33 µM | TRPV1-expressing cells, Fluo-8 calcium influx, capsaicin EC20 potentiation; host cell line not named in the record; control for the full effect not named in the record | AID 540277 | 0.02% of 320,000 active; active means potentiation above 80%; inconclusive means 30% to 80%; inactive means below 30%; also: 0% is about no effect
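Fluo-8 calcium influx in TRPV1-expressing cells, kinetic read (ex 480/em 520 nm). Compound added and read 3 min for agonist activity, followed by capsaicin at EC20 final and 2 min further read for enhancement.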
D2 agonist: human D2 receptor agonism in beta-arrestin assay; P14416; DiscoveRx PathHunter D2 beta-arrestin, luminescence, 90 min; 100% = 57 uM dopamine signal; activation, % (concentration not given with the values); 0.084% of 360,000 active; AID 624465; in the data active = activation above about 40%; inconclusive = about 15% to 40%; inactive = below about 15%; also: compound concentration not given in the record; the text of the record calls up to 30% inactive
Target sequence (P14416 whole entry, looked up): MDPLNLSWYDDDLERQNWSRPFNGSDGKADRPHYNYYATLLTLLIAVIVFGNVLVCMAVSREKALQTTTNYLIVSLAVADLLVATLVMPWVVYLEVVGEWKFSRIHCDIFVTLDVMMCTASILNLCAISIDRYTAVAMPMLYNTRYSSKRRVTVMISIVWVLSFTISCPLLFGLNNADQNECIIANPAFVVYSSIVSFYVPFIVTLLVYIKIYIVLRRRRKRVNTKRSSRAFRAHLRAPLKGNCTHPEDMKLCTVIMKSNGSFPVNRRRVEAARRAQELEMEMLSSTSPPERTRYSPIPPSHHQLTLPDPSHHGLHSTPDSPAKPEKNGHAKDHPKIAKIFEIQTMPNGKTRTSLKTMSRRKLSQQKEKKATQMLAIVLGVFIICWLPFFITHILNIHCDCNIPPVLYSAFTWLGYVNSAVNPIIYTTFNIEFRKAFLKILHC
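DiscoveRx PathHunter D2 beta-arrestin cells (2,100/well) attached overnight, then compound-stimulated 90 min at 37 C in HBSS/10 mM HEPES/0.1% Tween-20 buffer; beta-galactosidase complementation read by luminescence after 1 h at ambient temperature. Dopamine 57 uM final (EC100) as control.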
Six1-Eya2 inh: blocks human Six1 binding to Eya2; Q15475+O00167; AlphaScreen GST-Six1/His-Eya2 binding, biochemical; hits give low values; control for the full effect not named in the record; activity change, % (test concentration not listed); 0.56% of 360,000 active; AID 651725; in the data active = activity change below about -65%; inconclusive = about -30% to -65%; inactive = above about -30%; also: % is scaled to controls: 0 for no effect and ±100 for the full control effect; compound concentration not given in the record
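Compounds are tested against tagged Six1 and Eya2 proteins bridged by glutathione donor and nickel acceptor beads; after a one-hour incubation at 37 °C without light, AlphaScreen emission is recorded.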
CtBP-E1A blk: inhibitors of CtBP/E1A interaction. 0.49% of 340,000 active. activity change, % (concentration not given with the values). AlphaScreen GST-E1A/His-CtBP binding, 1536-well; hits give low values; control for the full effect not named in the record. AID 651724; in the data active means activity change below about -65%; inconclusive means about -30% to -65%; inactive means above about -30%; also: % is scaled to controls: 0 for no effect and ±100 for the full control effect
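GST-E1A and His-tagged CtBP (125 nM each as 5X stock) were preincubated with pin-transferred compound for 2 h at 37 °C in the dark, then glutathione donor and nickel acceptor beads were added for 1 h before AlphaScreen reading.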
D2 potentiator: human D2 receptor positive allosteric modulation; DiscoveRx D2 beta-arrestin cells, luminescence, 90 min; 100% = 57 uM dopamine signal; potentiation, % (no concentration beside the values); P14416; 0.23% of 360,000 active; AID 624464; active = potentiation of 50% or more; inconclusive = 30% to 50%; inactive = 30% or less;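 also: compound concentration not given in the record; tested on top of an EC20 dose of dopamine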
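PathHunter beta-arrestin assay in DiscoveRx D2 cells. Compounds were added with an EC20 of dopamine (50 nM final) for 90 min at 37 deg C. Luminescence was read 1 h after detection reagent, with 57 uM dopamine as the EC100 control.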
PINK1 modulator: changes PINK1 expression. Potency, µM (highest dose often 76.6 µM), inactives show at the top dose activation (PINK1 increase), most hits filed as activators. 0.2% of 410,000 active. PINK1 immunofluorescence, high-content cytometry, 24 h. AID 624263; active = well fitted activation curve with a large enough effect; inconclusive = small, poorly fitted or top-dose-only effect; inactive = flat fitted curve, though single readings scatter; cell line not stated here;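 also: potency is read from the fitted curve at half-maximal effect; % of control where 0% means no effect; nearly all actives have a fitted effect of over 65% in size; a mitochondrial uncoupler was the plate control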
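Cells are seeded, rested 12 hours, then given compound at five concentrations or DMSO for 24 hours. After fixation, blocking and antibody staining, PINK1 amount and mitochondrial localization are scored; CCCP serves as control.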
Sfp PPTase inh: blocks B. subtilis Sfp PPTase activity. Q9F4F7. Biochemical Sfp PPTase activity, qHTS. Potency, µM, for inactives: max response, negative = inhibition, most hits filed as inhibitors. 3.5% of 310,000 active; active = well fitted inhibition curve with a large enough effect; inconclusive = small, poorly fitted or top-dose-only effect, or another doubt; inactive = no such curve, though single readings can be large or run the other way;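 also: the enzyme is Sfp with the accession as filed and its product quenches rhodamine fluorescence; potency is read from the fitted curve at half-maximal effect; 0% = enzyme reaction without inhibitor and -100% = no enzyme wells; top concentration of the series not given in the record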
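With Hepes-Na pH 7.6 buffer containing 10 mM MgCl2, Sfp (15 nM) modified BHQ-2-YbbR (12.5 uM) using rhodamine-CoA (5 uM). Two reads 30 minutes apart at 525/598 nm yielded each well's rate.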
An asterisk follows results filed as active; ? = inconclusive; / = not tested or not shown; & = joins results of further samples; [ ] = dose if it differs, or a comment.

Structure | TRPV1 potentiator | D2 agonist | Six1-Eya2 inh | CtBP-E1A blk | D2 potentiator | PINK1 modulator | Sfp PPTase inh
CCOc1ccc(C(=O)C(CN2CCOCC2)c2ccccc2)cc1 (stereo not given) | -13 | -5.6 | -5 | 6 | -14 | -5.7% | 2%
COc1ccc2nc(/N=C\N(C)C)sc2c1 | -17 | -1.1 | 3 | 0 | -2 | 2.0% | -11%
O=C(CSc1nncn1-c1cccnc1)Nc1cccc([N+](=O)[O-])c1 | -10 | -2.2 | 5 | -13 | -2 | -0.1% | -4%
CCC(CO)Oc1cc(NC(=O)c2cccc(Cl)c2)c2ncn(C(C)C)c2c1 (stereo not given) | -15 | 3.6 | -7 | 1 | 1 | 0.7% | /
CCN(CC)CCNC(=O)c1ccc(NC(=O)c2c(C)nn(-c3ccc(F)cc3)c2Cl)cc1 | 1 | -2.6 | -3 | 1 | -16 | -0.7% | 17%
CC(=O)N1CCCc2cc(S(=O)(=O)N(C)CCC#N)ccc21 | 1 | -3.6 | 2 | 4 | 9 | -1.2% | 8%
CN(CC(=O)NNC(=O)Cc1ccccc1F)S(=O)(=O)c1ccc(Cl)cc1 | 3 | -4.7 | 10 | -8 | 1 | 1.4% | /
COC(=O)c1c(-c2ccccc2)noc1-c1ccccc1 | / | 0.3 | 33 | 37 | 3 | 4.8% | /
CC(C)CC(=O)N1CCN(Cc2ccccc2Cl)CC1 | 1 | 4.8 | 6 | / | -3 | 1.0% | 3%
CCOc1ccc(/C(O)=C2/C(=O)C(=O)N(Cc3cccnc3)C2c2ccc(N(C)C)cc2)c(C)c1 (stereo not given) | 29 | 0.2 | 0 | -22 | -6 | 25%[38.3 µM] | 5%
CN(C)/C=C/C=C1C(=O)CCCC1=O | -11 | 1.5 | -2 | 1 | -2 | 0.1% | -3%
COc1cc(OC)cc(C2=Cc3ccccc3C(CC(C)=O)N2c2ccc(C#CC3(O)CCCCC3)cc2)c1 (stereo not given) | / | / | 9 | 6 | / | 0.4% | /
COC(=O)[C@@H]1C[C@@]2(O)[C@H](O)[C@H](O)[C@H](O)C[C@H]2N1Cc1ccc(C(F)(F)F)cc1 | -17 | -2.4 | 3 | 3 | -12 | 0.4% | 19%&-5%
CCOc1ccc(/C=N/NC(=O)c2ccccc2O)cc1CN1CC2CC(C1)c1cccc(=O)n1C2 (stereo not given) | 1 | 1.2 | -2 | -17 | -2 | 1.4% | /
Cc1ccc2oc(=O)c3cnn(CC(=O)N4CCN(c5ccccn5)CC4)c3c2c1 | ? | -1.0 | 1 | 0 | 2 | 5.8% | 11%
COC(=O)c1cccc(NC(=S)NCCC2=CCCCC2)c1 | -5 | 2.2 | -1 | 0 | -33 | -0.2% | 24%
Cc1cc(C)n(CC(=O)N2CCCC(N3CCN(Cc4ccc5c(c4)OCO5)CC3)C2)n1 (stereo not given) | 6 | 0.2 | 1 | 0 | -35 | 4.4% | 11%
CCN(CC)c1ccc(/C=N/NC(=O)c2c[nH]c3ccccc23)cc1 | -37 | 0.7 | -24 | -8 | 9 | 1.4% | 11%
O=C(Nc1ccccc1F)C(=O)c1cn(CC(=O)N2CCCCC2)c2ccccc12 | ? | -7.7 | 16 | 6 | 1 | -0.8% | 14%
Cc1ccc(OCC(=O)NNC(=O)c2cc3ccccc3o2)cc1C | 5 | 0.6 | 8 | 0 | 0 | -1.5% | 9%

Limited to PINK1 modulator and CtBP-E1A blk, for three of the compounds above:
compound	PINK1 modulator	CtBP-E1A blk
CC(=O)N1CCCc2cc(S(=O)(=O)N(C)CCC#N)ccc21	-1.2%	4
CN(CC(=O)NNC(=O)Cc1ccccc1F)S(=O)(=O)c1ccc(Cl)cc1	1.4%	-8
COC(=O)c1c(-c2ccccc2)noc1-c1ccccc1	4.8%	37

Returning to the listing, starting three compounds before the break.
Structure | TRPV1 potentiator | D2 agonist | Six1-Eya2 inh | CtBP-E1A blk | D2 potentiator | PINK1 modulator | Sfp PPTase inh
CCN(CC)c1ccc(/C=N/NC(=O)c2c[nH]c3ccccc23)cc1 | -37 | 0.7 | -24 | -8 | 9 | 1.4% | 11%
O=C(Nc1ccccc1F)C(=O)c1cn(CC(=O)N2CCCCC2)c2ccccc12 | ? | -7.7 | 16 | 6 | 1 | -0.8% | 14%
Cc1ccc(OCC(=O)NNC(=O)c2cc3ccccc3o2)cc1C | 5 | 0.6 | 8 | 0 | 0 | -1.5% | 9%
O=C(O)CCc1ccc(-c2cccs2)n1NC(=O)c1ccccc1Br | 7 | -6.0 | -10 | -7 | -10 | ? | ?
CCCCC(CC)C(=O)Nc1cc(=O)[nH]c2nc3ccccc3n12 (stereo not given) | 9 | -3.3 | -11 | 5 | -7 | 3.2% | -3%
CCN1CCN(S(=O)(=O)c2cc(OC)ccc2OC)CC1 | 3 | -2.8 | 2 | 8 | -13 | 4.0%[38.3 µM] | -1%
Cc1n[nH]c(=O)c2c(NC(=O)CSc3nnnn3-c3ccc(O)cc3)oc(C)c12 | 0 | 0.4 | -5 | -4 | -8 | 3.1% | /
NC(=O)COc1ccc2oc(=O)cc(-c3cc4ccccc4o3)c2c1 | -4 | -4.1 | -4 | -7 | 6 | 3.0% | 8%
COc1cccc(OCCOCCN(C)CCO)c1 | -2 | -0.9 | 0 | -2 | -12 | 0.4% | 19%
Fc1ccc(-c2nnc(Cc3ccc(Cl)cc3)o2)cc1 | -11 | 2.2 | 13 | 2 | 2 | 0.7% | 0%
CCCCN(CCCC)c1ccc(C(=O)c2ccccc2C(=O)O)c(O)c1 | -13 | -2.3 | -4 | 16 | -22 | -3.1%[38.3 µM] | -25%
CC1(C)NC(=O)N(CCOCCOc2ccccc2-c2ccccc2)C1=O | 3 | -2.2 | 9 | 2 | -6 | 0.2% | 14%
COc1ccc(-n2nc(C(=O)NCC(=O)NCCc3ccc(OC)c(OC)c3)c3ccccc3c2=O)cc1 | -4 | 4.8 | -3 | 11 | 11 | 1.1% | 4%
CCOc1nnnc2c1sc1nc(N3CCOCC3)c3c(c12)CCCC3 | -1 | -1.8 | 4 | 2 | -8 | -0.5% | 18%
Cc1coc2cc3oc(=O)c(CC(=O)N(C)CC(=O)O)c(C)c3cc12 | 3 | 0.4 | -6 | 0 | 3 | 0.8% | 1%
CCN=C(Nc1cccc(F)c1)SC1CC(=O)N(c2ccc(OC)cc2)C1=O (stereo not given) | / | 2.6 | 1 | 0 | -11 | 15%[38.3 µM] | -2%
Cc1[nH]n(-c2ccccc2)c(=S)c1C=Nc1ccc([N+](=O)[O-])cc1 | -12 | -1.2 | -10 | -2 | -16 | 3.8% | 6.3µM*
CC(C)(C)c1ccc(C(CC(=O)O)NC(=O)C23CC4CC(CC(C4)C2)C3)cc1 (stereo not given) | -20 | -2.2 | -3 | / | -21 | 0.6% | 11%
COc1ccc(C(=O)O)cc1S(=O)(=O)Nc1ccc(N2CCCCC2)cc1 | / | 2.1 | 6 | 3 | -2 | 1.9% | /
Cc1ccc(NC(=O)C2CCN(S(=O)(=O)c3cccc4nonc34)CC2)cc1 | -11 | 5.1 | -3 | 2 | 2 | -1.4% | 13%
CC(=O)c1cc(CCC(=O)NC2CCCCCC2)oc1C | -2 | -2.2 | -3 | -3 | 0 | 2.3% | 0%
COc1ccc(Br)cc1/C=N/NC(=O)CNC(=O)c1cccnc1 | -6 | -3.0 | ? | ? | -25 | 5.4% | 20%
CC(=O)Nc1ccc(S(=O)(=O)NCC2CCC(C(=O)N3CCN(c4ccccn4)CC3)CC2)cc1 (stereo not given) | -4 | -6.4 | -9 | -7 | -5 | -1.2% | 10%
COc1cc(OC)cc(C(=O)N[C@H](C(=O)Nc2ccccc2N2CCOCC2)C(C)C)c1 | -7 | -1.5 | 1 | -1 | -4 | 2.1% | 9%
COC(=O)c1ccc(CSc2nc3ccccc3[nH]2)o1 | 16 | 1.9 | 7 | -6 | 3 | 1.3% | -2%
COc1ccc(COC(=O)CCc2c[nH]c3ccccc23)cc1F | / | 3.4 | -8 | -5 | 13 | -0.3% | /
CC1=C(C(N)=O)C(c2ccc(Br)cc2)n2ncnc2N1 (stereo not given) | 10 | 2.4 | 1 | / | -11 | -0.6% | 6%
NS(=O)(=O)c1ccc(CCNC(=O)CN2C(=O)COc3ccc(S(=O)(=O)N4CCCC4)cc32)cc1 | 1 | 3.2 | 23 | 19 | -7 | 1.3% | 2%
Cc1ccc(N2C(=O)CC(c3ccsc3)C3=C2CC(C)(C)CC3=O)cc1 (stereo not given) | / | -3.5 | -3 | 1 | -9 | -1.3% | -9%
COc1ccc(CNC(=O)c2noc3c2CCCCC3)cc1 | 6 | -1.2 | 5 | 17 | 1 | -2.5%[38.3 µM] | 18%
CNc1c(NC(=O)C2CCC(C)CC2)c(=O)oc2ccccc12 (stereo not given) | 0 | -3.4 | 2 | 10 | -4 | 2.7% | ?
